# Biofilm kill mix – mixtures killing C. albicans biofilm | C. albicans biofilm persisters + clotrimazole, fluorescence viability; primary screen in compound mixtures of four per well | inhibition, % at 7.6 µM | hit rate 0.02% among 120,000 | AID 1242;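 active = inhibition above 30.3% in the primary screen of four-compound pools, then above 30% when the compound was retested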;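 note: compounds exposed to preformed 24 h biofilms for 48 h; the number belongs to the whole pool; some results filed as inactive read as strong as hits; inactives centre near 12; 0% = biofilm with clotrimazole alone and 100% = kill control; retested singly at about 60 µM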
#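 Test system: C. albicans biofilms. Buffer or medium: RPMI/MOPS medium, pH 7.0. Timing: 48 h compound exposure at 37 °C. Technique: Alamar Blue fluorescence. Evaluation: percent inhibition of biofilm viability.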
# An asterisk follows results filed as active.
SMILES,Biofilm kill mix
Cc1n[nH]c(C)c1CCC(=O)N/N=C/c1c[nH]c2ccccc12,22
Cc1cc(C)c(C(=O)CN2C(=O)NC3(CCCCCC3)C2=O)cc1C,12
O=C(Nc1ccc(Cl)cc1F)c1cc(S(=O)(=O)N2CCCCC2)ccc1F,19
CCOC(=O)Cn1c(=O)oc2ccc(C)cc21,27
COc1ccc(N(C(=O)Cc2cccs2)C(C(=O)NC2CCCCC2)c2cccn2C)cc1OC (configuration not stated),6
O=C1c2cccc([N+](=O)[O-])c2C(=O)N1c1ccccc1,7
Cc1ccc(CSCC(=O)N2CCCC2)cc1,16
COc1cccc(CN2CCN(Cc3ccc(C)o3)CC2CCO)c1 (configuration not stated),-2
Cn1nc(-c2ccccc2)c(CO)c1Oc1cccc(C(F)(F)F)c1,15
COC(=O)c1cc(=O)c2c(C)nc(C(Cl)(Cl)Cl)nc2[nH]1,7
COc1ccc(-c2nc(N)nc(C(F)(F)F)c2-c2csc(C)n2)c(O)c1,17
CCOC(=O)c1c(C)[nH]c(C(=O)COC(=O)/C=C/c2ccc3c(c2)OCO3)c1C,11
CCC(CO)NCc1ccc(-c2ccccc2)cc1 (configuration not stated),17
CCc1ccc(-c2csc3ncn(CC)c(=O)c23)cc1,27
CCOC(=O)c1sc(=NC(=O)COc2ccc(Cl)cc2)n(C)c1C,11
CCOC(=O)c1sc2nc3c(SCCC(=O)O)cc(C(=O)c4cc(OC)ccc4O)cn3c(=O)c2c1C,12
Nc1cc(N2CCCC2)ccc1[N+](=O)[O-],13
O=C(Cn1cc(CCO)nn1)N1CCNCC1,14
N#Cc1ccc(-c2ccc(OCC(=O)NCCc3ccccc3)cc2)cc1,18
Cc1ccc(C(=O)/C=C\NCc2ccccc2)cc1,9
COc1ccc(/C=N/NC(=O)Cn2cc(C(F)(F)F)ccc2=O)cc1,10
CSc1nnc(-c2cc(Br)ccc2N=Cc2c(C)[nH]n(-c3ccccc3)c2=O)c(=O)[nH]1,22
Cc1nc(SCC(=O)Nc2cc(Cl)ccc2[N+](=O)[O-])nc(C)c1C,7
CCOC(=O)N1CCN(C(=O)CSc2ccc3nnc(-c4cccnc4)n3n2)CC1,16
CC(=O)Nc1nc(Cn2nnc(-c3ccc4c(c3)OCO4)n2)nc(N(C)C)n1,16

# Molecules listed so far with a Cl atom, in the order listed:
SMILES,Biofilm kill mix
O=C(Nc1ccc(Cl)cc1F)c1cc(S(=O)(=O)N2CCCCC2)ccc1F,19
COC(=O)c1cc(=O)c2c(C)nc(C(Cl)(Cl)Cl)nc2[nH]1,7
CCOC(=O)c1sc(=NC(=O)COc2ccc(Cl)cc2)n(C)c1C,11
Cc1nc(SCC(=O)Nc2cc(Cl)ccc2[N+](=O)[O-])nc(C)c1C,7

# (listing goes on)
SMILES,Biofilm kill mix
COc1cc2c(cc1OC)C(C)N(C(=S)NC(=O)c1ccccc1)CC2 (configuration not stated),8
Cc1cc(/C=C2\C(=N)N3N=C(S(C)(=O)=O)SC3=NC2=O)c(C)n1Cc1ccccc1,43
CC(C)N(C(=O)CSc1nnc(Cc2csc(Nc3ccccc3)n2)o1)C(C)C,-2
COC(=O)c1ccc2c(=O)n(-c3ccccc3F)c(=S)[nH]c2c1,21
O=C(CN1CCN(S(=O)(=O)c2ccccc2F)CC1)Nc1ccccc1C(=O)c1ccccc1,12
C=CCO/N=C/C1=C(O)C(C(=O)OC)C(C)(C)CC1=O (configuration not stated),32
N#CCC(=O)Nc1ccc(C(=O)OCC(=O)Nc2ccccc2-c2ccccc2)cc1,7
CS(=O)(=O)Nc1ccc(C2=NN(C(=O)c3ccco3)C(c3ccc(F)cc3)C2)cc1 (configuration not stated),12
CSC1=C(C#N)C(=O)NC(c2ccccc2O)S1 (configuration not stated),19
CC(=O)Nc1ccc(C(=O)OCC(=O)Nc2c(F)cccc2F)cc1,4
O=S(N1CCCCC1)C12CC3CC(CC(C3)C1)C2 (configuration not stated),0
CC(=O)OCn1nnc2ccccc2c1=O,5
CN(C)c1cccc2c(S(=O)(=O)NCc3ccc(S(N)(=O)=O)cc3)cccc12,0
CC1=CC2=NC(=O)/C(=C\c3ccc(-c4cccc(Cl)c4)o3)C(=N)N2O1,11
CC(C)OC(=O)c1cc2c(=O)[nH]c(C(Cl)(Cl)Cl)nc2o1,18
COc1ccc(N2CCN(C(=S)NC(=O)c3cccs3)CC2)c([N+](=O)[O-])c1,8
CC(OC(=O)c1ccccc1NS(=O)(=O)c1cccc(C(F)(F)F)c1)C(=O)N(C)Cc1ccccc1 (configuration not stated),25
CCOC(=O)c1ccc(NC(=O)c2cc(F)c(F)cc2Cl)cc1,12
CCCN1CCC(NC(=S)Nc2ccc(OC)c(OC)c2)CC1,-3
O=C(COC(=O)CCC(=O)c1ccc(Cl)cc1)NCc1ccco1,16
COc1cccc(C(=O)/C(C#N)=N/Nc2cccc(-c3ccnc(C)n3)c2)c1,15
CNC(=O)c1cc(C(=O)c2ccccc2C(F)(F)F)c[nH]1,6
C[n+]1c2n(c3ccccc31)N=C(c1ccccc1)CS2,10
COC(=O)CNc1ccc2c(c1)OCO2,4
COC(=O)C1=C(N)OC2=C(C(=O)CC(C)(C)C2)C1c1ccccc1OCC#N (configuration not stated),13

# New compounds follow
SMILES,Biofilm kill mix
CN(C)CC(=O)N1CCc2ccccc2C1,5
CCOC(=O)c1c(NC(=O)C(=O)N/N=C/c2ccc(O)c(OC)c2)sc2c1CCCCC2,2
O=C1C2CCCN2C(=O)N1CCCCN1CCN(c2ccc(F)cc2)CC1 (configuration not stated),18
CCN1CCN(C(c2ccccc2)c2sc3nc(C)nn3c2O)CC1 (configuration not stated),6
Cc1ccc2c(c1)c(Sc1ccccc1)c(CC(=O)O)n2C,14
COc1ccc(OC)c(CN2CCN(Cc3cccc4ccccc34)CC2)c1,14
NS(=O)(=O)c1ccc(N=Cc2c(O)c3ccccc3oc2=O)cc1,6
CN1CCN(C(=O)c2ccccc2NC(=O)C(C)(C)C)CC1,10
Cc1cc(C)c2cc(C=O)c(Cl)nc2c1,11
CC(C)(C)N=C1C([N+](=O)[O-])=CC=C2C1=NC1(CCCCC1)N2O,15
CCCCCCN(C(=O)CCCCCN1C(=O)NC(c2ccc(-c3ccccc3)cc2)C(C(=O)OCc2ccccc2)=C1C)C(C(=O)NCCCC)c1ccc(O)c(C(=O)OC)c1 (configuration not stated),5
Cn1cc([N+](=O)[O-])c(C(=O)N/N=C/c2ccc([N+](=O)[O-])cc2)n1,18
O=C(/C=C/c1ccc(F)cc1)NCc1cccs1,14
COc1ccc(C(=O)C2CCCN(C(=O)c3cc(C(C)C)no3)C2)cc1F (configuration not stated),-1
O=C(CC1NCCNC1=O)Nc1ccc([N+](=O)[O-])cc1 (configuration not stated),17
Cc1cc([N+](=O)[O-])c(C)cc1-c1ccc(/C=N/NC(=O)Cn2nnnc2N)o1,10
COc1cccc(OC)c1C(=O)NC(=S)Nc1cccc(NC(=O)c2ccco2)c1,7
CNC(=S)N(Cc1cc2ccc(OC)cc2[nH]c1=O)CC1CCCO1 (configuration not stated),-2
Cc1ccc(N(CC(=O)NCC2CCCO2)C(=O)CCC(=O)Nc2ccccn2)cc1C (configuration not stated),-6
O=C(CSc1ccccc1C(=O)O)c1ccc([N+](=O)[O-])cc1,9
Nc1[nH]n(-c2ccccc2)c(=O)c1N=Nc1ccc2ncsc2c1,14
CCC1CCCCN1c1nc2c(C=O)c(C)nn2c2ccccc12 (configuration not stated),23
COc1ccc(N(C=O)C(=S)SC)cc1,13
CCOC(=O)COC(=O)c1ccc(Oc2cc(C)nc(SC)n2)cc1,12
OC1(c2ccc(Cl)cc2)CCN(Cc2cn[nH]c2-c2ccc(F)cc2)CC1,12

# Following part
SMILES,Biofilm kill mix
Cc1onc(-c2c(Cl)cccc2Cl)c1NC(=O)N(C)N,12
Cc1cc(C)n2ncc(C(=O)Nc3ccc(Cl)c(Cl)c3)c2n1,2
CCOC(=O)C1(CC2CCCCO2)CCN(Cc2cc(F)ccc2-n2cccn2)CC1 (configuration not stated),16
COc1ccc(OC)c(/C=N/NC(=O)CC(=O)NCc2ccccc2)c1,29
O=C(c1ccc2c(=O)n(C3CCCC3)c(=S)[nH]c2c1)N1CCCCCC1,14
O=C(Nc1nc(-c2ccc(F)c(F)c2)cs1)c1cnccn1,22
CC(=O)NC(=S)NNC(=O)COc1ccc(Br)cc1,12
CC(=O)C1=C(O)CC(c2ccccc2)CC1=NCCc1c(C)[nH]c2ccc(C)cc12 (configuration not stated),-1
COc1ccc(N(CC(=O)Nc2ccc(S(=O)(=O)N3CCOCC3)cc2)S(=O)(=O)c2ccc(F)cc2)cc1,12
CCCN(CC(=O)Nc1cc(Cl)ccc1Cl)C(=O)/C=C/c1ccco1,29
CC(NC(=O)CSCc1ccccc1Br)c1ccccc1 (configuration not stated),10
COc1ccc(C=C(c2nc3ccccc3s2)c2nc3ccccc3s2)cc1O,19
COc1ccc(C(=O)Nc2ccc(NC(=O)C(C)C)nc2)cc1,-9
COCC1CCCN(Cc2cn[nH]c2-c2cc3ccccc3o2)C1 (configuration not stated),15
COC(=O)c1ccc(Cn2cc(C(F)(F)F)cc([N+](=O)[O-])c2=O)cc1,9
CS/C(=N\S(=O)(=O)c1ccccc1)c1ccccc1,15
Cc1ccc2oc(=O)c(/C=C(\O)c3cccs3)nc2c1,14
CCOC(=O)/C(CCC[N+](C)(CC)CC)=N\O,8
Cc1cc(SCC(=O)Nc2cccc(S(=O)(=O)N3CCOCC3)c2)nc2ccccc12,-7
O=C(c1ccc(F)cc1Cl)N(c1ccccn1)C1CCCCC1,18
CCOC(=O)c1cnc(-n2nc(C)cc2C)nc1Nc1ccc(O)cc1,26
COc1ccc(CCNC(=O)CSc2nnnn2C)cc1OC,5
Cc1[nH]c2ccccc2c1/C=N/NC(=O)CCC(=O)NCc1ccccc1,24
C=CCN1C(=O)C(CC(=O)Nc2ccc(OCCC)cc2)N(CCCN2CCN(Cc3ccccc3)CC2)C1=S (configuration not stated),16
Cc1cc(C(=O)N/N=C/c2cc(Br)cc(Br)c2OC(=O)c2ccccc2)n[nH]1,-4

# An excerpt of these results, with tabs.
Structure	Biofilm kill mix
Cc1[nH]c2ccccc2c1/C=N/NC(=O)CCC(=O)NCc1ccccc1	24
C=CCN1C(=O)C(CC(=O)Nc2ccc(OCCC)cc2)N(CCCN2CCN(Cc3ccccc3)CC2)C1=S (configuration not stated)	16

# Next part
SMILES,Biofilm kill mix
CCN(CC)S(=O)(=O)c1cccc(NC(=O)COC(=O)c2cc(=O)c3ccccc3o2)c1,-6
Cc1ccc2nc(-c3ccc(NS(=O)(=O)c4ccc(F)c(F)c4)cc3)sc2c1,-10
CCN(CC)S(=O)(=O)c1cccc(C(=O)N/N=C/c2ccc(OC)c(O)c2)c1,-16
CC1CCC(C(C)C)C(OC(=O)COC(=O)c2ccc(N)cc2)C1 (configuration not stated),12
O=C(Nc1ccc(F)cc1)Nc1cc(OCC(F)(F)F)cc(OCC(F)(F)F)c1,15
CC(C)C(=O)N1CCN(c2ccccc2NC(=O)COc2ccccc2)CC1,1
NC1=NC[C@@H](Cc2ccc(O)cc2)N1CCc1cccc(F)c1,9
O=C(Cn1nnc(-c2cccs2)n1)Nc1ccccc1C(F)(F)F,2
CC(CCn1cccn1)NC(=O)CCc1nnc(C2CCCCC2)o1 (configuration not stated),0
COc1cc(/C=N/Nc2ccccc2C(F)(F)F)ccc1O,7
CCCCOc1ccccc1C1C(C(=O)OC)=C(C)N(C)C(C)=C1C(=O)OC,5
NNC(=O)CCC(=O)Nc1ccccc1,12
CCCOc1ccc(/C=c2\sc3ncnn3c2=O)cc1,1
CC(C)CC[n+]1ccn(-c2nc3ccccc3nc2[N-]S(=O)(=O)c2ccc(Cl)cc2)c1,22
COC(=O)c1ccc(CSc2nc3sc(C)c(C)c3c(=O)[nH]2)cc1,11
Cc1ccc(S(=O)(=O)NC(=O)c2cc(C)n(-c3ccc(N(C)C)cc3)c2C)cc1,15
O=C(O)C1=C[C@H](c2coc3ccccc3c2=O)C[C@H](OCCCCO)O1,18
CCCS(=O)(=O)c1csc(C(=O)OC)c1N,11
C=CCNc1nc(Nc2ccc([N+](=O)[O-])cc2)nc(OCC)n1,23
CCOC(=O)C1=C(c2ccccc2)NC(=S)NC1c1ccc(Cl)cc1 (configuration not stated),17
CCOC(CNc1c([N+](=O)[O-])c(=O)n(C)c(=O)n1C)OCC,7
O=C(Nc1nc2ccccc2[nH]1)C1CCC1,-4
CCOC(=O)c1c(-c2ncc(C(F)(F)F)cc2Cl)noc1C,9
CC1=Nc2cc([N+](=O)[O-])ccc2NC(C)(C)C1,17
CCNC(=S)Nc1ccc(OCC)cc1,8

# More records follow.
SMILES,Biofilm kill mix
COc1cc(NC(=O)C(=O)NCCN(C)C)c(OC)cc1Cl,4
O=C(CSCc1ccc(Cl)cc1)N1CCN(Cc2ccc3c(c2)OCO3)CC1,22
O=C1OC2CCC1(c1ccccc1)C2 (configuration not stated),6
Cc1cc([N+](=O)[O-])cc(/C=N/n2c(C)nc3ccccc3c2=O)c1O,12
N#CC(C#N)=C1C=CC=CN1/C(=C\c1ccco1)C(=O)c1ccc(Cl)cc1,9
CCOC(=O)c1c(-c2ccc(OC)cc2)cn2ccccc12,5
CCCCNS(=O)(=O)c1ccc2nc(-c3cccnc3)cc(C(=O)NC3CCCC3)c2c1,21
C=CCN(C(=O)C1=NN(C2CCS(=O)(=O)C2)C(=O)CC1)c1nc(-c2ccc([N+](=O)[O-])cc2)cs1 (configuration not stated),0
Cc1ccc(C(=O)NCC(=O)N/N=C/c2cccs2)cc1C,10
Cc1cc(NC(=O)COC(=O)C2CCC(=O)N2)c([N+](=O)[O-])cc1C (configuration not stated),7

# Entries above that contain a cyano group (6):
SMILES,Biofilm kill mix
N#Cc1ccc(-c2ccc(OCC(=O)NCCc3ccccc3)cc2)cc1,18
N#CCC(=O)Nc1ccc(C(=O)OCC(=O)Nc2ccccc2-c2ccccc2)cc1,7
CSC1=C(C#N)C(=O)NC(c2ccccc2O)S1 (configuration not stated),19
COc1cccc(C(=O)/C(C#N)=N/Nc2cccc(-c3ccnc(C)n3)c2)c1,15
COC(=O)C1=C(N)OC2=C(C(=O)CC(C)(C)C2)C1c1ccccc1OCC#N (configuration not stated),13
N#CC(C#N)=C1C=CC=CN1/C(=C\c1ccco1)C(=O)c1ccc(Cl)cc1,9

# These rows are one share of the data; the hit share may differ from the screen's.
